Screening data as filed in PubChem BioAssay.
T cruzi repl = inhibitors of intracellular T. cruzi growth, primary screen, luminescence, NIH3T3 host cells | T. cruzi beta-gal in NIH3T3, 90 h | inhibition, % (no concentration beside the values) | 300,000 tested, 1.4% active | AID 1885, 2009;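 active = mean inhibition across valid replicates above about 55%, limit read from the data; inconclusive = mean below that limit but half or more replicates reach it; inactive = mean below it, under half of replicates reach it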;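 note: signal also drops with host cell toxicity which is not excluded here; 0% = plate median of DMSO wells and 100% = zero luminescence signal; higher percent means less beta-gal luminescence so fewer parasites; stock transfer was 50 nL into about 50 µL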
A1 inh = caspase 3/7 activation in MEF A1-2A-BIM cells, primary screen, A1 inhibitor project, cell-based, luminescence, HTS; Caspase-Glo 3/7 luminescence, 3 h; percent of clofoctol response, vehicle zero; caspase activation, % (concentration not given with the values); 330,000 tested, 0.066% active;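 active = over half of replicate activation scores above 10%, or exactly half above 10 with the replicate mean above 10; inconclusive = replicate mean below 10 yet half the replicates above 10; inactive = over half of replicates below 10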;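 note: wells of about 30 µL received 50 nL stock; many hits fall short of the cut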
Beta apoptosis = inhibitors of cytokine-induced beta cell apoptosis, primary screen, luminescence; protection from apoptosis, % (concentration not given with the values); INS-1E cytokine-induced death, ATP luminescence, 48 h; percent of positive-control rescue, neutral wells zero; 300,000 tested, 0.8% active;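 active = all replicates at 75% or more, or half of them and the mean; inconclusive = half reach 75% but not the mean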;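 note: 0% = cytokine-treated negative control wells and 100% = positive control rescue; higher means more ATP so stronger rescue from cytokine killing; wells of about 40 µL received 100 nL stock; the first replicate is given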
Calb FLC = C. albicans growth inhibition with fluconazole, primary screen, CaCi-2 strain, Alamar Blue fluorescence. C. albicans CaCi-2 (fluconazole-resistant clinical isolate) + fluconazole, 48 h. growth inhibition, % (concentration not given with the values). 300,000 tested, 0.57% active. AID 1979, 2009;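 active = most replicates above 75%; inconclusive = exactly half above 75%; inactive = most below 75%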;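 note: all wells also contain fluconazole at 8 µg/ml as a sub-toxic cotreatment; 0% = median of DMSO wells and 100% = median of geldanamycin control wells; wells of about 8 µL received 7.5 nL stock; the first replicate is given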
ALR H2O2 inh = inhibitors of human ALR sulfhydryl oxidase, primary screen, biochemical, H2O2 detection, HRP-luminol luminescence, single point. FAD-linked sulfhydryl oxidase ALR (Homo sapiens), P55789. purified ALR, DTT oxidation. inhibition, % (concentration not given with the values). 290,000 tested, 3.8% active. AID 485317, 2010;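 active = mean and each replicate at 75% or more; inconclusive = only one of the two met; inactive = neither met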;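 note: stock transfer was 7.5 nL into about 7.5 µL; 0% = neutral wells and 100% = wells with inactivated enzyme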
Target sequence (P55789 whole entry, looked up): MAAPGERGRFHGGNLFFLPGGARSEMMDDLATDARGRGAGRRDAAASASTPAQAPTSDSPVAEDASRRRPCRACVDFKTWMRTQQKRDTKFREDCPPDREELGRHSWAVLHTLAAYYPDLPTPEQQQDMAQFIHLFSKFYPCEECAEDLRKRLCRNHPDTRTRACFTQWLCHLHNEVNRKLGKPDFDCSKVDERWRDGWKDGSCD
B2AR ag = beta2AR agonists driving receptor internalization, primary screen, cell-based, FAP fluorogen, flow cytometry. Beta-2 adrenergic receptor (Homo sapiens), P07550. Am2.2-beta2AR cells; reference of the scale not given here. response, % (no concentration beside the values). 340,000 tested, 0.43% active;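 active = response above a set limit, near 3 SD of response in nonfluorescent compounds, cut at about 42% in these data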;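 note: stock transfer was 100 nL into about 11 µL; a reference agonist was the positive control; negative values mostly stem from fluorescent compounds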
Target sequence (P07550 whole entry, looked up): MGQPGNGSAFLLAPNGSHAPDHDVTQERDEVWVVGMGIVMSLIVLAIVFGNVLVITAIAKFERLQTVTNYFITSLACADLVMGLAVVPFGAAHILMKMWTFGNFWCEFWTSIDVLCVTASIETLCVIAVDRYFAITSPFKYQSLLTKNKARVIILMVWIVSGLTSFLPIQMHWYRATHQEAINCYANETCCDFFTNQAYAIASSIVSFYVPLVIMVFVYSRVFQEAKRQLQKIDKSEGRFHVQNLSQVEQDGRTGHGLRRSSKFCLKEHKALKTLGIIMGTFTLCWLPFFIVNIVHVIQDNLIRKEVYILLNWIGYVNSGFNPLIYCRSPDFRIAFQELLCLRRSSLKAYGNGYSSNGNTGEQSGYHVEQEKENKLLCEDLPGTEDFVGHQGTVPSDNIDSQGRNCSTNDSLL
Ecoli rRNA inh = reduced GFP signal of wild-type E. coli, primary screen, bacterial rRNA inhibitor project, GFP/RFP fluorescence, OD600, single point | 350,000 tested, 1.6% active | GFP signal change (wild-type ribosome), % (no concentration beside the values) | E. coli WT GFP vs humanized-ribosome RFP mutants, 24 h; hits give low values; DMSO median 0, no signal -100 | AID 720706, 2013;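 active = significant combined selectivity score with lowered wild-type GFP, culture density cut under 30%, mutant RFP and density less affected; inactive = any of these conditions unmet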; note: one replicate is shown; some compounds called inactive have numbers as strong as hits
LANA-H2A inh = blockers of LANA interaction with H2A/H2B – biochemical, FP readout, HTS, primary screen | Protein LANA1 (Human herpesvirus 8 type P (isolate GK18)), Q9QR71 | cell-free LANA-H2A/H2B peptide, fluorescence polarization | inhibition, % (concentration not given with the values) | 320,000 tested, 0.6% active; in the data active = inhibition mostly above about 10%, no sharp cut-off; inactive = mostly below about 6.7%;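 note: stock transfer was 7.5 nL into about 10 µL; 0% = median of vehicle wells and 100% = median of positive control wells; one replicate is shown; the record names a cut of 25% in any replicate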
Ecoli rRNA inh OD600 = recorded beside Ecoli rRNA inh, whose call it bears; OD600 change, %; measured here: OD600 growth;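 optical density of the mix in the first replicate; 0 = DMSO median and -100 = no signal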
Ecoli rRNA inh RFP = recorded beside Ecoli rRNA inh, whose call it bears; RFP signal change, %; measured here: RFP humanized mutant strains;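 first replicate; 0 = DMSO median and -100 = no signal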
Active calls of the source: *; ? = inconclusive; · = no result given. This is a subset (hit frequency here may not be typical).

SMILES	T cruzi repl	A1 inh	Beta apoptosis	Calb FLC	ALR H2O2 inh	B2AR ag	Ecoli rRNA inh	Ecoli rRNA inh OD600	Ecoli rRNA inh RFP	LANA-H2A inh
Cc1ccc(-c2nnc(SCCC(=O)N3CCOCC3)o2)cc1	-6	-0.2	-4	-1	·	-5	-6	9	-2.5	6.2
COc1cccc(NC(=O)CCS(=O)(=O)c2ccc(Br)cc2)c1	-10	-0.1	·	8	-2	-7	1	6	1.3	-0.8
CCC(Oc1ccccc1)C(=O)NC1CCSC1=O (stereo not drawn)	2	0.5	-3	3	·	3	16	7	0.5	8.2
CCN(C(=O)CSc1ncnc2sccc12)c1c(N)n(Cc2ccccc2)c(=O)[nH]c1=O	·	-0.1	-6	·	-1	1	·	·	·	1.7
O=C(/C=C/c1ccc(OC(F)F)cc1)OCC(=O)N1CCc2ccccc21	32	-0.6	-8	-1	·	-6	4	4	2.4	-3.3
O=C(CN1CCC(NC(=O)c2cccc(F)c2)CC1)NCc1ccccc1F	-12	0.3	-3	-8	-15	12	·	·	·	0.6
CCOc1cc(/C=N/NC(=O)COc2ccc(C)cc2)ccc1OC(=O)c1cccs1	-2	0.4	-1	-26	-11	-5	·	·	·	-0.5
Cc1ccccc1Cn1nc(C)c(NC(=O)/C=C/c2cnn(C)c2C)c1C	-8	-0.1	0	-11	-7	-1	9	12	12	-3.9
Cn1c(CN2CCCC(C(=O)c3ccc4c(c3)OCO4)C2)nc2ccccc21 (stereo not drawn)	73*	-0.3	-10	-29	·	-14	·	·	·	9.7
CC1(c2cccs2)CC(c2cccs2)=C(C#N)C(=O)N1 (stereo not drawn)	-13	-0.8	1	0	-10	6	·	·	·	-1.6
Cc1c(C(N)=O)c(N)c(C(=O)c2ccccc2)n1-c1ccccc1	-4	-0.1	0	-9	-6	-3	·	·	·	2.1
CN(c1ccc(C(=O)Nc2ccc(S(=O)(=O)N3CCCC3)cc2)cc1)S(C)(=O)=O	9	1.9	-4	-1	0	7	-7	-4	0.7	-6.8
CCC(C)C(NC(=O)C1CCC(C)CC1)C(=O)Nc1cc(OC)ccc1OC (stereo not drawn)	2	0.3	-6	-28	·	1	·	·	·	4.6
COc1ccc(/C=C(/NC(=O)c2ccccc2)C(=O)NCc2ccncc2)cc1	-11	-1.9	3	15	2	6	12	13	2.3	-1.9
CCCCNC(=S)N(C)/N=C/c1ccccc1F	15	0.5	-4	1	-6	-3	·	·	·	0.0
CC1Cc2ccccc2N1C(=O)COC(=O)c1ccccc1NCCO (stereo not drawn)	-8	0.7	2	-5	-1	-1	-3	-7	-3.5	-2.8
CCOCCCNC(=O)C1(O)c2ccccc2NC(=O)N1c1ccc(Cl)cc1 (stereo not drawn)	10	-0.6	-3	-7	-9	1	-30	-27	3.5	-1.7
C/C(=N\NC(=O)CSc1nnc(C)s1)c1ccc(O)cc1	-16	-0.2	0	6	99*	4	-1	-9	-3.2	-0.4
CN(C)C1=NCCN1CCCC1CCCC1	·	-0.6	0	·	-3	-8	8	14	2.0	0.6
CCOc1cccc(NC(=O)c2ccc(S(=O)(=O)N(C)C)cc2)c1	·	0.5	-5	·	-9	4	-6	-12	-2.6	-1.2
COc1ccc(Nc2nc(-c3ccccc3)c(C(=O)Nc3cccnc3)s2)cc1	11	-0.5	-5	-3	4	4	8	7	3.4	-4.3
O=S1(=O)N=C(Nc2ccc(N3CCOCC3)cc2)c2ccccc21	-5	0.4	-1	86*	0	4	·	·	·	-3.0
CCN(CC)C(=S)NC(=O)c1ccc(Cl)cc1Cl	-9	0.6	-2	18	-3	-3	·	·	·	0.0
COCCCNC(=O)Cn1c(=O)oc2cc(S(=O)(=O)N3CC(C)CC(C)C3)ccc21 (stereo not drawn)	1	0.9	-9	33	2	0	0	1	2.0	-9.8

Four compounds from above, limited to A1 inh and B2AR ag:
Compound,A1 inh,B2AR ag
CCOc1cccc(NC(=O)c2ccc(S(=O)(=O)N(C)C)cc2)c1,0.5,4
COc1ccc(Nc2nc(-c3ccccc3)c(C(=O)Nc3cccnc3)s2)cc1,-0.5,4
O=S1(=O)N=C(Nc2ccc(N3CCOCC3)cc2)c2ccccc21,0.4,4
CCN(CC)C(=S)NC(=O)c1ccc(Cl)cc1Cl,0.6,-3

Sorted by number of heavy atoms (low to high): 4 of the compounds above.
SMILES	T cruzi repl	A1 inh	Beta apoptosis	Calb FLC	ALR H2O2 inh	B2AR ag	Ecoli rRNA inh	Ecoli rRNA inh OD600	Ecoli rRNA inh RFP	LANA-H2A inh
CCN(CC)C(=S)NC(=O)c1ccc(Cl)cc1Cl	-9	0.6	-2	18	-3	-3	·	·	·	0.0
CCOc1cccc(NC(=O)c2ccc(S(=O)(=O)N(C)C)cc2)c1	·	0.5	-5	·	-9	4	-6	-12	-2.6	-1.2
CCC(C)C(NC(=O)C1CCC(C)CC1)C(=O)Nc1cc(OC)ccc1OC (stereo not drawn)	2	0.3	-6	-28	·	1	·	·	·	4.6
COCCCNC(=O)Cn1c(=O)oc2cc(S(=O)(=O)N3CC(C)CC(C)C3)ccc21 (stereo not drawn)	1	0.9	-9	33	2	0	0	1	2.0	-9.8

Going on with the list.
SMILES	T cruzi repl	A1 inh	Beta apoptosis	Calb FLC	ALR H2O2 inh	B2AR ag	Ecoli rRNA inh	Ecoli rRNA inh OD600	Ecoli rRNA inh RFP	LANA-H2A inh
CCN(CC)S(=O)(=O)c1ccc(NS(=O)(=O)c2ccc(OC)c([N+](=O)[O-])c2)cc1	5	0.3	-6	-2	-6	6	-9	-5	-7.0	9.9
O=C(COc1ccc(F)cc1)Nc1ccccc1N1CCOCC1	3	-0.2	-3	·	6	-1	2	2	-1.8	1.0
COc1ccc(C(=O)C/C(=C\C(=O)c2ccc(C)cc2)c2ccccc2)cc1	64*	-0.1	?	-3	0	-3	·	·	·	-7.3
NNC(=S)NC1CC2CC1C1C=CCC21 (stereo not drawn)	-19	0.3	17	5	5	5	-21*	-7.1*	2.0*	-3.7
O=C(Nc1cccc(Cl)c1)c1ccccc1NC(=O)C1CCCCC1C(=O)O (stereo not drawn)	-6	-0.1	·	-1	-5	6	-14	-15	-4.1	2.1
COc1ccc(OCCC(=O)OCC(=O)NCc2ccco2)cc1	-4	0.7	-5	7	-3	-1	·	·	·	0.8
Cc1ccc(-c2noc(-c3ccccc3C(=O)N3CCOCC3)n2)cc1	3	0.0	-1	1	-1	-1	-14	-7	5.8	2.6
OCCC1CN(Cc2cccn2-c2ncccn2)CCN1C1CCCC1 (stereo not drawn)	-7	-0.2	-2	-8	·	9	7	7	7.3	-0.5
COCCNc1nnc(SCC(=O)N(C)c2c(N)n(Cc3ccccc3)c(=O)[nH]c2=O)s1	-11	0.5	·	-11	-2	-2	11	0	1.9	-4.1
COc1ccc(C2C(C(=O)Nc3ccccc3OC)=C(C)Nc3nnnn32)c(OC)c1 (stereo not drawn)	6	-0.1	·	-11	1	-7	·	·	·	1.3
Cc1cccc(NC(=O)c2cccc(S(=O)(=O)NCc3ccccc3)c2)n1	12	0.3	-5	1	-4	9	-5	-3	-0.4	-4.6
O=C1CC(c2ccccc2)Sc2ccccc2N1 (stereo not drawn)	3	0.5	3	22	94*	-2	·	·	·	-0.5
CCS(=O)(=O)c1ccc(C(=O)Nc2ccccc2)c(Cl)c1Cl	-8	-0.3	2	-1	-2	-3	·	·	·	2.9
CCSc1nnc(NC(=O)CCN2C(=O)C3CCCCC3C2=O)s1 (stereo not drawn)	·	-1.2	-8	·	-5	-4	-10	-20	2.1	2.8
CCN(CC)C(=O)Cn1cc(S(=O)(=O)CC(=O)Nc2ccc(C(N)=O)cc2)c2ccccc21	-3	0.1	2	1	-1	-9	6	22	1.2	-1.2
O=C(NC(Cc1c[nH]c2ccccc12)C(=O)N1CCOCC1)c1cccs1 (stereo not drawn)	-6	1.1	-2	12	-1	-3	-3	2	-1.3	3.5
N#Cc1ccc(-c2ccc(F)cc2)nc1Sc1ccc(F)cc1	-3	-0.6	5	0	-9	1	·	·	·	2.7
S=C(NC1CCCCC1)N1CCN(Cc2ccccc2)CC1	-8	0.7	-3	0	0	-3	-8	-14	0.4	5.2
COC(=O)COc1cccc2c(=O)n(CC(=O)NCCc3ccccc3)ccc12	·	0.7	-5	·	-26	11	8	14	1.5	2.1
O=C(Nc1ccc(N2CCCC2)cc1)c1ccc(Br)o1	2	-2.3	-1	21	-7	-3	·	·	·	-3.1
CCCC(=O)Nc1nc(C)c(-c2csc(Nc3ccccc3C)n2)s1	-15	0.8	4	-4	?	13	-1	-4	5.5	0.9
COC(=O)c1ccc(OCC(O)CN(CCO)CC(O)Cn2ccc3ccccc32)cc1 (stereo not drawn)	-4	0.2	-6	-10	-23	-7	-19	-25	-3.8	-20
Cn1cc(S(=O)(=O)N2CCCC2)cc1C(=O)Nc1cccc(C(F)(F)F)c1	0	-0.2	1	-8	-3	1	8	29	9.6	-4.1
NC(=O)CC(NC(=O)c1ccccc1)c1ccc(N2CCC(N3CCCC3)CC2)c([N+](=O)[O-])c1 (stereo not drawn)	-16	0.7	2	2	-8	-1	14	11	2.2	0.7
Cc1occc1-c1nnc(-c2cc([N+](=O)[O-])cc([N+](=O)[O-])c2)o1	66*	3.8	-4	-2	-17	-1	11	12	2.4	5.5
CC(=O)C1=C(C)NC(=S)NC1c1cccc([N+](=O)[O-])c1 (stereo not drawn)	-4	0.3	-3	7	-11	0	8	10	-3.5	7.2
O=C(Nc1nc2ccc(Cl)cc2s1)c1ccc(N2CCCCC2)c([N+](=O)[O-])c1	34	-0.1	19	22	4	14	·	·	·	2.5
Cc1csc(NC(=O)CSc2nnc(C)c(=O)n2N)n1	0	0.3	2	8	99*	-1	18	6	-1.3	1.0

Individual results from the list:
Under Ecoli rRNA inh OD600, Cc1csc(NC(=O)CSc2nnc(C)c(=O)n2N)n1 reads 6
Under LANA-H2A inh, Cc1occc1-c1nnc(-c2cc([N+](=O)[O-])cc([N+](=O)[O-])c2)o1 reads 5.5
